# ALR H2O2 inh: inhibitors of human ALR sulfhydryl oxidase, primary screen, biochemical, H2O2 detection, HRP-luminol luminescence, single point. inhibition, % (no concentration beside the values). purified ALR, DTT oxidation. AID 485317, 2010. FAD-linked sulfhydryl oxidase ALR (Homo sapiens), P55789. 290,000 compounds, 3.8% hits;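 active means mean and each replicate at 75% or more; inconclusive means only one of the two met; inactive means neither met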;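 further: stock transfer was 7.5 nL into about 7.5 µL; 0% = neutral wells and 100% = wells with inactivated enzyme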
# Target sequence (P55789 whole entry, looked up): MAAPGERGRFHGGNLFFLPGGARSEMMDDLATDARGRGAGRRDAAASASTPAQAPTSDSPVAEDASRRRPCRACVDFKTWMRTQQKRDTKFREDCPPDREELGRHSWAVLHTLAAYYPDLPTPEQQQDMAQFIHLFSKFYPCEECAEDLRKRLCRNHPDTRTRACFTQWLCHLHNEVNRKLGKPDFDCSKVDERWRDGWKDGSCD
# RanGTP-Impb inh: inhibitors of RanGTP-importin-beta interaction, primary screen, biochemical, FRET, CFP-Ran, YFP-importin-beta, homogeneous; Ran GTPase (GTP-bound) - importin-beta complex; cell-free CFP-Ran/YFP-importin-beta FRET ratio; inhibition, % (test concentration not listed); 300,000 compounds, 1.1% hits; AID 2216, 2009;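 active means most replicates above 15%; inconclusive means exactly half above 15%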;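 further: 0% = DMSO wells and 100% = Ran loaded with GDP instead of GTP; wells of about 40 µL received 100 nL stock; the first replicate is given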
# Ecoli rRNA inh: reduced GFP signal of wild-type E. coli, primary screen, bacterial rRNA inhibitor project, GFP/RFP fluorescence, OD600, single point; E. coli WT GFP vs humanized-ribosome RFP mutants, 24 h; hits give low values; DMSO median 0, no signal -100; GFP signal change (wild-type ribosome), % (concentration not given with the values); 350,000 compounds, 1.6% hits; AID 720706, 2013;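 active means significant combined selectivity score with lowered wild-type GFP, culture density cut under 30%, mutant RFP and density less affected; inactive means any of these conditions unmet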; further: one replicate is shown; some compounds called inactive have numbers as strong as hits
# Beta apoptosis: inhibitors of cytokine-induced beta cell apoptosis, primary screen, luminescence; INS-1E cytokine-induced death, ATP luminescence, 48 h; percent of positive-control rescue, neutral wells zero; 300,000 compounds, 0.8% hits; protection from apoptosis, % (no concentration beside the values); AID 435005, 2010;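 active means all replicates at 75% or more, or half of them and the mean; inconclusive means half reach 75% but not the mean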;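 further: 0% = cytokine-treated negative control wells and 100% = positive control rescue; higher means more ATP so stronger rescue from cytokine killing; wells of about 40 µL received 100 nL stock; the first replicate is given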
# MLL AF4-AF9 inh: inhibitors of AF4 peptide binding to AF9, primary screen, biochemical, AlphaScreen, biotin-AF4 peptide, FLAG-AF9, single point; Protein AF-9 (Homo sapiens), P42568; inhibition, % at 10 µM; 350,000 compounds, 0.47% hits;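 active means every replicate reaching a set inhibition limit, whatever the replicate mean, cut at about 25% in these data; inconclusive means mean inhibition reaches that limit but some replicates miss it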;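 further: 0% = plate neutral control median and 100% = total signal loss; the record names both 10 and 1 µM as test concentration; the first replicate is given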
# Target sequence (P42568 whole entry, looked up): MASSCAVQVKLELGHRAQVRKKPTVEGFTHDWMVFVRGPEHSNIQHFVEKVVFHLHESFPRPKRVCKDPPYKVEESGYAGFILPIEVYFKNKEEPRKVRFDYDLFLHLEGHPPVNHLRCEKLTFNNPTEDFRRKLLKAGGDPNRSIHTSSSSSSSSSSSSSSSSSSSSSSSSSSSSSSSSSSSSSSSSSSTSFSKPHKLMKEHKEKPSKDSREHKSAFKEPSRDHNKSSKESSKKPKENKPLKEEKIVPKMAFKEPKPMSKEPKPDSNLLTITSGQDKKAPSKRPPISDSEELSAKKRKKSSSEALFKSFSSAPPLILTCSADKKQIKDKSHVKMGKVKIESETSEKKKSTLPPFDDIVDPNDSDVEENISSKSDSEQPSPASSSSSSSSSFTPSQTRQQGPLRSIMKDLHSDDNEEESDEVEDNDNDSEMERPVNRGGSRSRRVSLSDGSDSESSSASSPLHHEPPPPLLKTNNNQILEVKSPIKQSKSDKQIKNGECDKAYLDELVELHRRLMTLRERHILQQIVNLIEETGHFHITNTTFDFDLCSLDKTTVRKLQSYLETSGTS
# T cruzi repl: inhibitors of intracellular T. cruzi growth, primary screen, luminescence, NIH3T3 host cells. T. cruzi beta-gal in NIH3T3, 90 h. inhibition, % (concentration not given with the values). 300,000 compounds, 1.4% hits;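 active means mean inhibition across valid replicates above about 55%, limit read from the data; inconclusive means mean below that limit but half or more replicates reach it; inactive means mean below it, under half of replicates reach it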;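 further: signal also drops with host cell toxicity which is not excluded here; 0% = plate median of DMSO wells and 100% = zero luminescence signal; higher percent means less beta-gal luminescence so fewer parasites; stock transfer was 50 nL into about 50 µL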
# Calb FLC: C. albicans growth inhibition with fluconazole, primary screen, CaCi-2 strain, Alamar Blue fluorescence; C. albicans CaCi-2 (fluconazole-resistant clinical isolate) + fluconazole, 48 h; growth inhibition, % (concentration not given with the values); 300,000 compounds, 0.57% hits; AID 1979, 2009;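 active means most replicates above 75%; inconclusive means exactly half above 75%; inactive means most below 75%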;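 further: all wells also contain fluconazole at 8 µg/ml as a sub-toxic cotreatment; 0% = median of DMSO wells and 100% = median of geldanamycin control wells; wells of about 8 µL received 7.5 nL stock; the first replicate is given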
# FGF22 binding: binders of human FGF22 protein, primary screen, FGF22 synaptogenesis inhibitor project, biophysical, thermal shift, single point | Fibroblast growth factor 22 (Homo sapiens), Q9HCT0 | recombinant FGF22 thermal shift, SYPRO orange fluorescence; percent of sucrose octasulfate shift, DMSO zero | calls only at 9.99 µM | 340,000 compounds, 1.5% hits | AID 651658, 2012;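 active means melting point raised past a set limit in the mean and every replicate; inconclusive means no clear call; three in four hits are not shown here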
# Target sequence (Q9HCT0 whole entry, looked up): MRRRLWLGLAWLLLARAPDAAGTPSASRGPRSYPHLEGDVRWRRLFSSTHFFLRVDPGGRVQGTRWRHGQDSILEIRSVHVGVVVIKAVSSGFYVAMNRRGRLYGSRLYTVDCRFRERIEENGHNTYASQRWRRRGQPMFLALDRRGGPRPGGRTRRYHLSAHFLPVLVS
# Ecoli rRNA inh OD600: further read-out of Ecoli rRNA inh, marked with its call; OD600 change, %; measured here: OD600 growth;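 optical density of the mix in the first replicate; 0 = DMSO median and -100 = no signal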
# Ecoli rRNA inh RFP: recorded beside Ecoli rRNA inh, whose call it bears; RFP signal change, %; measured here: RFP humanized mutant strains;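 first replicate; 0 = DMSO median and -100 = no signal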
# * hit, by the source's call; i = inactive; ? = inconclusive; . = not tested or not shown; & = joins results of further samples. The list is partial (hit frequency here may not be typical).
SMILES,ALR H2O2 inh,RanGTP-Impb inh,Ecoli rRNA inh,Ecoli rRNA inh OD600,Ecoli rRNA inh RFP,Beta apoptosis,MLL AF4-AF9 inh,T cruzi repl,Calb FLC,FGF22 binding
COc1ccc2c(c1)CCc1c(C(=O)NC3CCCCC3)noc1-2,-10,-0.2,.,.,.,10,.,1,14,.
Cc1csc(NC(=O)CSc2ccc(-c3ccccn3)nn2)n1,-7,?,-19,-29,-9.5,-4,1.6,6,-10,i
CCn1cc(/C=N/NC(=O)COc2cccc3cccnc23)c2ccccc21,-3,-0.6,.,.,.,35,.,-11,0,.
O=C1Nc2cc(C(=O)N3CCC(N4CCCCC4)CC3)ccc2S/C1=C\c1ccccc1,6,1.0,2,-3,12,-1,32*,23,21,i
S=C(Nc1ccc(Cl)cc1)N1CCN(Cc2ccccc2)CC1,2,-1.0,2,4,3.1,-15,-2.0,0,-24,i
COCC(=O)N(Cc1cc2ccccc2[nH]c1=O)c1ccc(OC)cc1,-7,-2.3,.,.,.,-6,.,-6,3,.
CCn1nc(NS(=O)(=O)c2ccccc2)c2cc3cc(C)ccc3nc21,81*,4.8,16,8,0.8,-2,6.7,-15,34,i
O=C(c1cccc(S(=O)(=O)N2CCc3ccccc3C2)c1)N1CCN(c2ccc(O)cc2)CC1,95*,-0.3,-14,-16,-0.5,-5,?,20,-29,i
COc1ccc(CNC(=O)C2CCCN(S(=O)(=O)c3c(C)noc3/C=C/N(C)C)C2)cc1 (centres undefined),-2,1.2,7,9,-2.8,-4,5.2,-6,2,i
COC(=O)c1c(N2C(=O)CC(Sc3ccccc3C(=O)O)C2=O)sc(C)c1C (centres undefined),12,1.0,-5,-4,-1.7,.,3.2,-17,6,i
Cn1c(NNC(=O)c2cccc3ccccc23)cc(=O)n(C)c1=O,-12,24*,-3,2,2.5,-10,6.0,-2,7,i
COc1ccc(COC(=O)C2CCN(S(=O)(=O)c3ccc(F)cc3)CC2)cc1,-2,5.0,-8,-4,3.0,0,-0.2,1,-2,i
COc1ccc(NC(=O)c2cc(-c3cc(C)c(C)cc3O)n[nH]2)c(OC)c1,.,-2.1,3,3,-1.5,.,0.2,-21,-1,i
NC(=O)C(c1ccccc1)c1ccc(C(=O)c2ccccc2)cc1 (centres undefined),-7,1.3,1,-5,0.0,-2,-0.5,2,-7,i
CN(Cc1ccc(OC(F)F)cc1)C(=O)c1ccc2c(=O)n3c(nc2c1)CCC3,1,0.3,4,1,2.1,-4,1.0,-9,-4,i

# Structural class, the compounds so far with four or more nitrogen atoms.
SMILES,ALR H2O2 inh,RanGTP-Impb inh,Ecoli rRNA inh,Ecoli rRNA inh OD600,Ecoli rRNA inh RFP,Beta apoptosis,MLL AF4-AF9 inh,T cruzi repl,Calb FLC,FGF22 binding
Cc1csc(NC(=O)CSc2ccc(-c3ccccn3)nn2)n1,-7,?,-19,-29,-9.5,-4,1.6,6,-10,i
CCn1cc(/C=N/NC(=O)COc2cccc3cccnc23)c2ccccc21,-3,-0.6,.,.,.,35,.,-11,0,.
CCn1nc(NS(=O)(=O)c2ccccc2)c2cc3cc(C)ccc3nc21,81*,4.8,16,8,0.8,-2,6.7,-15,34,i
COc1ccc(CNC(=O)C2CCCN(S(=O)(=O)c3c(C)noc3/C=C/N(C)C)C2)cc1 (centres undefined),-2,1.2,7,9,-2.8,-4,5.2,-6,2,i
Cn1c(NNC(=O)c2cccc3ccccc23)cc(=O)n(C)c1=O,-12,24*,-3,2,2.5,-10,6.0,-2,7,i

# Other compounds follow:
SMILES,ALR H2O2 inh,RanGTP-Impb inh,Ecoli rRNA inh,Ecoli rRNA inh OD600,Ecoli rRNA inh RFP,Beta apoptosis,MLL AF4-AF9 inh,T cruzi repl,Calb FLC,FGF22 binding
Cc1cc2c(s1)CCCCC(=O)N2,-28,1.0,.,.,.,-4,.,-16,-3,.
Cc1cccc(NC(=O)CN2C(=O)N/C(=C/c3cc(C)n(-c4cccnc4)c3C)C2=O)c1,4,1.0,10,16,3.6,.,0.4,1,-17,.
Cn1c(=O)c2c(nc(CN3CCc4ccccc4C3)n2Cc2ccc(Cl)cc2)n(C)c1=O,2,5.7,.,.,.,.,.,-18,-1,.
COc1ccc(OC)c(C2C=C(c3ccc(C)c(C)c3)Nc3nnnn32)c1 (centres undefined),-6,?,.,.,.,-1,.,18,7,.
O=C(NCc1cccs1)C1CCN(c2ccc(S(=O)(=O)N3CCOCC3)cc2Cl)CC1,-3,2.5,.,.,.,17,.,-22,10,.
CN(c1ccccc1)S(=O)(=O)c1ccc(Cl)c(C(=O)NC2=NCCS2)c1,-15,-0.8,-18,-14,-2.6,0,2.6,-9,5,i
NC(=O)CC(NC(=O)Cc1cccc2ccccc12)c1ccc(NCc2ccccc2)c([N+](=O)[O-])c1 (centres undefined),0,-3.5,3,11,7.9,-4,-2.0,-1,-5,i
CCN1CCN(C(=O)c2ccc3c(=O)n(C4CCCC4)c(=S)[nH]c3c2)CC1,24,0.5,.,.,.,1,.,4,10,.
Cc1ccccc1NC(=O)CSc1nc2ccccc2c(=O)n1CC1CCCO1 (centres undefined),.,11,4,12,1.7,.,-2.4,25,-1,i
COc1ccc(N(CC(=O)N2CCCC2)S(=O)(=O)c2ccc(NC(C)=O)cc2)cc1,.,?,-1,2,-0.4,2,0.0,8,-1,i
O=C(NC1(C(F)(F)F)NC(=O)N(Cc2cccnc2)C1=O)c1ccccc1Cl (centres undefined),.,0.4,.,.,.,-3,.,-4,-16,.
Cc1ccc(C)c(N(C(=O)c2ccco2)C(C(=O)NC2CCCC2)c2ccco2)c1 (centres undefined),4,1.6,5,2,0.7,-1,-16,2,-7,i
COc1ccc(/C=N/NC2=NS(=O)(=O)c3ccccc32)cc1OC(C)=O,4,4.4,13,7,2.6,-8,-4.3,3,7,i
CCOc1ccccc1N1CCN(C(=O)[C@@H]2CCCN2C2=NS(=O)(=O)c3ccccc32)CC1,97*,.,.,.,.,-1,-0.2,.,.,i
Cc1ccc(C)c(S(=O)(=O)N/N=C/c2ccc(F)cc2)c1,12,-2.3,-11,-16,2.8,-6,-2.0,0,19,i
COCc1c(C(=O)N/N=C/c2c[nH]c3ccccc23)nnn1-c1nonc1N,.,1.3,-1,14,-2.6,-7,-1.4,-1,29,i
C(#Cc1c(-c2ccsc2)sc2ccccc12)c1ccsc1,-3,.,17,20,14,-4,3.6,.,.,i
Cc1ccc(S(=O)(=O)N2CCOCC2)cc1C(=O)N1CCC(Cc2ccccc2)CC1,1,0.0,1,-9,7.9,4,-1.9,2,3,i
CCc1cccc(CC)c1-n1c(SCn2nnc3ccccc3c2=O)nnc1-c1cccnc1,.,0.4,.,.,.,14,.,21,1,.
O=C(CSc1nccn1-c1cccc(Cl)c1)NC1CCCC1,-16,-5.3,.,.,.,0,.,3,-11,.
COc1ccccc1CN1CCNC(=O)C1CC(=O)N(C)Cc1ccon1 (centres undefined),-19,0.2,21,4,-0.7,-2,-1.5,-3,-10,i
COc1ccc(OCC(=O)N/N=C2\CCCCc3ccccc32)cc1,-5,-2.8,-29*,-18*,4.7*,-32,2.7,-1,4,i
Cc1[nH]nc(N=CC2=C(O)CC(c3ccco3)CC2=O)c1-c1ccccc1 (centres undefined),3,13,-3&5,-5&-2,3.8&1.7,6,-0.1,7,1,i
Cc1cc(Sc2nnc(/N=C/N(C)C)s2)c2ccccc2n1,98*,-4.4,-20*,1.5*,-1.1*,.,.,.,62,i
O=C(c1ccccc1Cl)N(Cc1ccc(Br)cc1)N1C(=O)CCC1=O,.,-1.7,-7,-6,3.3,-13,4.3,-8,0,i
COC(=O)c1ccc(C23CC4(C2)[C@H](CN(C)[C@@H]4c2ccccc2)C3c2ccccc2)cc1 (some centres undefined),-15,1.4,-12,-7,17,2,7.8,22,-29,i
Cc1cc2occ(CC(=O)Nc3nccs3)c2cc1C(C)C,7,-1.9,.,.,.,1,.,27,14,.
CSCCC(NC(=O)c1ccccc1)C(=O)Nc1ccc(NC(C)=O)cc1 (centres undefined),-1,-2.4,5,2,-2.9,-2,3.5,0,-7,i
CN(C)S(=O)(=O)c1ccc(N2CCCC2)c(C(=O)NNC(=O)COc2ccccc2Cl)c1,1,0.8,-2,-4,-1.5,-3,-5.1,14,3,i
COc1cccc(CN2CC(C(=O)NCCCn3ccnc3C)CCC2=O)c1 (centres undefined),2,1.3,11,14,0.1,-1,-1.4,-10,8,i
Cc1ccc2ccc(S(=O)(=O)NCc3ccco3)cc2c1,.,?,-1,-3,2.1,0,0.0,-3,8,i
COc1ccc(-c2noc(CNS(=O)(=O)c3ccccc3)n2)cc1,1,?,-7,-6,3.5,.,-2.5,-13,-5,i
CCc1ccc(NC(=O)Cn2nnc(C(=O)NCc3ccc4c(c3)OCO4)c2N)cc1,-1,3.2,5,4,0.4,.,-0.8,4,7,i
COc1ccc(Cl)cc1C(=O)Nc1ccc(NC(=O)c2ccco2)cc1,-1,6.4,.,.,.,2,.,6,-11,.
Fc1ccc(-c2nnc3ccc(N4CCCC4)nn23)cc1,-9,10,-11,-10,-0.8,.,-2.0,4,10,i
O=C(NCc1ccccn1)c1ccc(=O)oc1,-13,-2.1,.,.,.,-7,.,-5,-9,.
FC(F)(F)c1cccc(NC(=S)Nc2ccc(Cl)c(Cl)c2)c1,16,1.2,-49*,-38*,-13*,14,-3.1,48,-5,i
CN(Cc1ccccc1)C(=O)COC(=O)c1ccc2c(c1)OCO2,-5,0.5,.,.,.,1,.,-9,-7,.
Cn1c(CC(=O)Nc2ccccc2)nnc1SCC(=O)NC1CCCC1,1,1.8,5,9,-1.2,1,0.7,0,6,i
COc1cc(C(=O)N/C(=C/c2ccc(F)cc2)C(=O)NC(C(=O)O)c2ccccc2)cc(OC)c1OC (centres undefined),25,-3.9,5,9,1.1,-4,0.0,-6,2,i
CCN1CCN(CC(=O)Nc2ccc(C)c(Br)c2)CC1,-21,-5.6,6,8,4.1,-10,1.0,20,-1,i
